Rango release inh = inhibition of RanGTP-driven Rango-importin beta dissociation. actives 0.071% (n = 340,000). Potency, µM (series often up to 46.1 µM), for inactives: top-dose activity change, negative = inhibition. O95149+P62826. Biochemical FRET Rango-importin beta, RanGTP-induced dissociation; active means falling FRET ratio curve, often poorly fitted, with flat reads before Ran was added; inconclusive means other falling curves, or compound fluorescence or quenching; inactive means flat or rising ratio curve;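 also: potency is read from the fitted curve at half-maximal effect; % of control where 0% means no effect; nearly all actives have a fitted effect of over 45% in size; -100% = wells without RanGTP and RCC1; the record marks most hits as doubtful in a second field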
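Rango FRET biosensor (snurportin-1 IBB flanked by N-terminal EYFP and C-terminal CFP10) at 0.1 uM, with 0.25 uM importin beta in PBS, 1mM DTT, 0.02% Tween-20, 0.1% BSA. 0.6 uM Ran, 2mM GTP and 0.2 uM RCC1 were then added for 45 min at room temperature. Inhibition read as loss of FRET rise.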
GLA inh pH 4.5 = blocks human alpha-galactosidase A at pH 4.5. P06280. purified enzyme, 4-MU-alpha-Gal fluorescence, pH 4.5. activity change, negative = inhibition, % at 105 µM. 230,000 tested, under 10 active. AID 1467; inconclusive = small, poorly fitted or top-dose-only inhibition, or a rising curve; inactive = flat fitted curve, though single readings scatter; no compound was filed as active;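 also: 0% = full activity with enzyme and -100% = basal without enzyme; dose as in the result columns while the protocol names 77 µM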
Target sequence (P06280 whole entry, looked up): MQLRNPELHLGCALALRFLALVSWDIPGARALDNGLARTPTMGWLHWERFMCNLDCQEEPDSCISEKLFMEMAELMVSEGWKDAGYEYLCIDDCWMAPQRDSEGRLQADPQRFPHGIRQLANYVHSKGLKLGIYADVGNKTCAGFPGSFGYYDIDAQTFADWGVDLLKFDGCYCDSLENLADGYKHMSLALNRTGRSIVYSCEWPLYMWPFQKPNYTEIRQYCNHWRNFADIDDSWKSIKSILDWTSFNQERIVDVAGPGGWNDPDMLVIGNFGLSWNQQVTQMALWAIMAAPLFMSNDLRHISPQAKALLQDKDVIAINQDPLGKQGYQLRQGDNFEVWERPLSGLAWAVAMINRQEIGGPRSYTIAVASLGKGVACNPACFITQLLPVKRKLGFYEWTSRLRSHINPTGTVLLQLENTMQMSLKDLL
Rango-impB inh = Rango-importin beta binding inhibition; Q14974; Rango CFP/YFP FRET sensor + importin beta, 45 min; Potency, µM (titrated, usually from 92.2 µM), without a hit: at the top dose inhibition of complex formation; actives 0.031% (n = 340,000); active = rising FRET ratio curve, often small or poorly fitted; inconclusive = mostly compound fluorescence or quenching in the first reads; inactive = flat curves in all reads;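 also: potency is read from the fitted curve at half-maximal effect; 0% = DMSO wells and 100% = buffer wells lacking importin beta; nearly all actives have a fitted effect of over 15% in size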
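FRET biosensor Rango (snurportin 1 IBB between N-terminal EYFP and C-terminal Cerulean), 50 nM in PBS/1 mM DTT/0.02% Tween-20/0.1% BSA, preincubated 5 min RT with compound; 0.125 microM importin beta added, 45 min RT, CFP/YFP FRET ratio read.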
miR-21 reporter = miR-21 reporter, rising signal; 340,000 tested, under 10 active; HeLa miR-21 FLuc reporter, luciferase, 48 h; Potency, µM (series often up to 38.3 µM), for inactives: at the top dose reporter change, positive = more light; active = well fitted rising curve with a large enough effect; inconclusive = small, poorly fitted or top-dose-only effect; inactive = no such curve, though single readings can be large or run the other way;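 also: % of control where 0% means no effect; miR-21 action dims this reporter so a rising signal means less miR-21 action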
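HeLa cells endogenously expressing miR-21, stably carrying CMV-driven firefly luciferase with a downstream miR-21 binding site, 2000 cells/well. Titrations up to approximately 40 uM, 48 hours; luciferase luminescence read.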
* hit, by the source's call; u = inconclusive; x = no result given; & = joins results of further samples. A portion of the library; count on the stated rates, not on these rows.

SMILES	Rango release inh	GLA inh pH 4.5	Rango-impB inh	miR-21 reporter
COc1ccc(C(=O)NC2(C(F)(F)F)NC(=O)N(CCCc3ccccc3)C2=O)cc1OC (stereo unspecified)	-6%	-6	3.8%	13%
COc1ccc(OC)c(C2=NS(=O)(=O)N(C)C(C(=O)Nc3ccc(F)cc3F)=C2)c1	0%	x	1.6%	16%&0%
CC[C@]12c3[nH]c4ccc(OC)cc4c3CCN1C(=O)C(CC(=O)NCC13CC4CC(CC(C4)C1)C3)C[C@@H]2C(=O)N1CCN(C(=O)c2ccco2)CC1 (stereo partly specified)	-16%	x	-0.3%	x
COc1ccc(C(=O)N2CCn3c(C)ccc3C2C)cc1 (stereo unspecified)	-21%	1	u	-8%
COc1ccc(CNC(=O)c2ccc(Cn3nc(C)cc3C)o2)cc1	u	x	-0.5%	-1%
Cc1c(Cc2ccccc2)c(=O)oc2cc(OC(=O)c3ccccc3)ccc12	-11%	5	-9.9%	0%
Cc1nc(SCC(=O)NC2CCCCC2C)c(C#N)c(C)c1C (stereo unspecified)	-9%	x	-0.3%	x
O=C(CSc1nnc(Cc2cccs2)n1-c1ccc(Cl)cc1)NCc1ccc2c(c1)OCO2	2%	-4	-0.1%	-5%
Cc1ccc(C(=O)NCc2cccnc2)cc1S(=O)(=O)N1CCCCCC1	19%	x	1.7%	1%
CC(=O)NS(=O)(=O)c1ccc(NC(=S)NC(=O)COc2ccccc2C)cc1	2%	-3	0.1%	-3%
CCc1ccc(NC(=O)c2ccc(NC(=O)C3CCCO3)cc2)cc1 (stereo unspecified)	-3%	x	2.5%	13%
C#CCOCCOCCOCCNc1nc(N2CCN(C(=O)[C@H](Cc3ccc(O)cc3)n3cc([C@@H](N)C(C)CC)nn3)CC2)nc(N2CCN(C(=O)[C@H](Cc3cc4ccccc4[nH]3)n3cc([C@@H](N)CC(C)C)nn3)CC2)n1 (stereo partly specified)	2%	-6	u	3%
CC(C)Cc1nnc(NC(=O)C2CC(=O)N(Cc3ccccc3)C2)s1 (stereo unspecified)	-9%	x	0.6%	-6%
O=C1C(c2ccnc3ccccc23)=C(O)c2ccccc21	-12%	-5	-1.4%	-1%
O=C(O)CCCn1c(=O)[nH]c2ccccc2c1=O	-5%	0	-2.0%	0%
Cc1cccc(/C=N/NC(=O)c2cc(C)nc3ccccc23)n1	4%	x	-2.8%	10%
COc1ccc(Cc2nc(C(=O)Nc3ccccc3)cs2)cc1	-1%	1	4.7%	-21%
Cc1ccc(S(=O)(=O)Oc2ccc(C3C4=C(CCCC4=O)N(CCC(=O)O)C4=C3C(=O)CCC4)cc2Cl)cc1	u	u	u	-7%
Cc1nn(C)c(C)c1S(=O)(=O)N(CC(=O)Nc1ccccn1)c1ccc(C(C)C)cc1	3%	-3	3.0%	-2%
COc1ccccc1N1CCN(Cc2ccc(C(=O)O)cc2)CC1	-3%	x	-3.9%	-2%
CCC(=O)c1ccc(N2CCCCCC2)c(F)c1	19%	-6	4.4%	-22%
CCOc1ccc(CN2CCN(S(=O)(=O)c3ccc(NC(C)=O)cc3)CC2)cc1	-16%	-9	1.1%	17%
Cn1cc([N+](=O)[O-])c(C(=O)Nc2cc(Oc3cccnc3)cc([N+](=O)[O-])c2)n1	6%	10	-1.8%	-2%
CCCN(CCC)C(=S)NC(=O)c1ccc(Cl)cc1Cl	0%	-2	-1.1%	8%
O=C(CSc1nc2nn(-c3ccccc3)c(=O)c-2c2n1CCCCC2)Nc1ccc(F)c(F)c1	0%	x	0.1%	x

Reformatted with values under each structure: entries from further up
Screens in order: Rango release inh, GLA inh pH 4.5, Rango-impB inh, miR-21 reporter
> Cc1ccc(C(=O)NCc2cccnc2)cc1S(=O)(=O)N1CCCCCC1
    19%, x, 1.7%, 1%
> CCOc1ccc(CN2CCN(S(=O)(=O)c3ccc(NC(C)=O)cc3)CC2)cc1
    -16%, -9, 1.1%, 17%

(list continues)
SMILES	Rango release inh	GLA inh pH 4.5	Rango-impB inh	miR-21 reporter
c1ccc2nc(-c3ccc(-n4ccnc4)cc3)ccc2c1	-5%	x	1.2%	-64%
N=c1oc2ccccc2cc1C(=O)NC1CCCCCC1	-3%	x	0.0%	-12%
Fc1ccc(Sc2nc(-c3ccccc3)nnc2C(F)(F)F)cc1	-12%	8	0.3%	-2%
Cc1noc(-c2ccccc2OC(=O)c2ccccc2)n1	-9%	9	-2.7%	-6%
COc1nc(Cl)cn(-c2ccc(Cl)cc2)c1=O	-8%	-13	1.3%	-12%
COc1ccc(/C=C(/NC(=O)c2ccccc2)C(=O)N/N=C/c2cccs2)cc1OC	-12%	-5	0.1%	-2%
O=C(NCc1cccnc1)c1cnn2ccccc12	21%	4	-2.6%	-5%
CCN(CC)S(=O)(=O)c1ccc(N/N=C(\C)c2ccncc2)c([N+](=O)[O-])c1	4%	x	-2.3%	-3%
O=C(Nc1c2c(nn1-c1ccc(F)cc1)CSC2)c1ccc(S(=O)(=O)N2CCOCC2)cc1	-6%	-10	-0.6%	-3%
CCOc1ccc(CCNC(=O)c2ccc3ccccc3n2)cc1OCC	-14%	x	u	-26%
CCN(CC)c1ccc(NC(=O)c2ccc(=O)[nH]c2)cc1S(=O)(=O)Nc1ccccc1OC	1%	-16	-1.7%	20%
CCC1Sc2ccc(S(=O)(=O)CCC(=O)Nc3cccc(Br)c3)cc2NC1=O (stereo unspecified)	7%	x	0.0%	7%
CN(C)c1nc(N(C)C)c2cnn(C)c2n1	-1%	x	0.5%	x
CC(/C=C1\SC(=S)N(CC(=O)O)C1=O)=C\c1ccccc1	1%	-6	-2.5%	0%
COc1ccc(N(CC(=O)N2CCN(C)CC2)S(=O)(=O)c2ccccc2)cc1	4%	x	-0.6%	-1%
O=C(CN1CCC(NC(=O)c2ccccc2Cl)CC1)NCc1ccccc1	-12%	x	-0.9%	-5%
Cc1ccc(OCCCCn2cnc3ccccc32)c(C)c1	-3%	5	5.5%	-8%
O=C(NC12CC3CC(CC(C3)C1)C2)c1cnccn1	-3%	-20	-2.5%	6%
O=C(Nc1ccn(CCCNCCN2CCOCC2)c(=O)n1)OCc1ccccc1	-2%	x	1.4%	x
O=CN1CCN(C(=O)c2ccccc2F)CC1	2%	3	-0.8%	-2%
CC(C)CCNC(=O)C(=O)Nc1cc2c3c(c1)CCC(=O)N3CCC2	0%	x	-0.6%	0%
COc1ccc(Nc2nnc(SCc3cn4c(C)cccc4n3)s2)cc1	2%	3	0.9%	13%
CCOc1ccc(N(CC(=O)NCc2ccc(Cl)cc2)S(=O)(=O)c2ccccc2)cc1	10%	x	-4.6%	4%
O=C(CN1CCN(S(=O)(=O)c2cccc(F)c2)CC1)NCC1(N2CCOCC2)CCCCC1	-5%	x	0.9%	x
CCc1nc2n[nH]c(N)c2c2c1CCCC2	2%	2	-3.2%	-33%

Other results.
SMILES	Rango release inh	GLA inh pH 4.5	Rango-impB inh	miR-21 reporter
COc1cccc(NC(=O)CN(C)C(=O)c2cccc(S(=O)(=O)N3CCN(c4ccc(F)cc4)CC3)c2)c1	11%	x	-2.7%	x
Cc1ccc(C(=O)CC(=O)COc2ccc(Cl)cc2C)cc1	8%	-28	-1.5%	-16%
Cc1cc(N/N=C/c2ccco2)c2ccccc2n1	11%	5	2.4%	-16%
CC1(C)CC=CC(COC(=O)c2ccccc2C(=O)O)C1 (stereo unspecified)	-6%	x	-0.3%	x
COc1ccc(C2CC(c3ccc(Cl)cc3)Nc3nc(NC(=O)c4ccco4)nn32)cc1 (stereo unspecified)	-5%	-26	0.5%	-2%
Cc1ccc(C2=NNC(C(O)C(O)C(O)CO)S2)cc1 (stereo unspecified)	3%	9	6.3%	-42%
C=CCN1CCC(=O)C(C(=O)OCC)=C1C(=O)OCC	-1%	x	-3.3%	x
CN(Cc1ccc(F)cc1)C(=O)c1ccc(NS(=O)(=O)c2ccc3[nH]c(=O)[nH]c3c2)cc1	-8%	x	-0.9%	x
COc1ccc(-c2nc(NC(=O)C3=NN(c4cccc(C)c4)C(=O)CC3)sc2C)cc1	-5%	-4	0.5%	1%
COC(=O)C(C(=O)OC)C(c1ccccc1)C(C(=O)c1ccccc1)[N+](=O)[O-] (stereo unspecified)	-27%	-8	-0.9%	5%
Cc1ccc(OCCN2C(=O)S/C(=C\c3ccc(C)o3)C2=O)cc1	-15%	1	-2.1%	-5%
O=C(CCC1CCCN(C(=O)c2ccco2)C1)NCc1ccccc1F (stereo unspecified)	6%	6	-6.7%	8%
CC1(C)Cc2c(C#N)c(N3CCOCC3)nc(-c3ccccc3)c2CO1	-27%	3	-0.1%	-12%
CC1(c2ccc(Cl)cc2)NC(=S)N2C1NC(=S)N2c1ccccc1 (stereo unspecified)	17%	1	-0.8%	-10%
COc1ccc(NC(=O)Cn2nnc(C(=O)NCc3ccccc3)c2N)c(OC)c1	7%	3	-3.7%	9%
Cn1c(SCC(=O)NC2CCCC2)nnc1-c1ccccn1	-17%	x	5.9%	0%
O=C(CN1CCN(c2ccccn2)CC1)N(c1ccccc1)c1ccc2ccccc2c1	11%	-1	0.3%	-8%
O=C(NNC(=O)c1ccccc1)C(=O)N1CCCCC1	6%	3	-2.5%	-6%
CCN1CCN(c2ccc(S(=O)(=O)N3CCOCC3)cc2NC(=O)c2ccc(C(F)(F)F)cc2)CC1	7%	x	8.0%	x
O=C(CSc1ccc2nnc(-c3ccc(F)cc3)n2n1)N1CCCc2ccccc21	7%	-3	-0.3%	0%
O=C(CCCN1C(=O)/C(=C\c2cccs2)SC1=S)Nc1ccc(O)cc1C(=O)O	-15%	x	-0.2%	10%
C[C@H](NC(=O)[C@@H]1Cc2ccccc2CN1)C(=O)Nc1ccc2c(c1)OCO2	-12%	x	0.6%	-15%
COC(=O)C[C@H]1c2cc(F)ccc2S(=O)(=O)N1Cc1ccccc1OC	17%	x	-4.5%	x
O=c1oc(-c2ccc(F)cc2)nc2ccsc12	0%	5	-0.2%	-13%
CC(=O)Nc1ccc(NC(=O)c2cccc(S(=O)(=O)N3CCCCCC3)c2)cc1	-10%	x	u	x

Retrieved by compound from the entries so far, 4 records:
SMILES	Rango release inh	GLA inh pH 4.5	Rango-impB inh	miR-21 reporter
O=C(CN1CCN(c2ccccn2)CC1)N(c1ccccc1)c1ccc2ccccc2c1	11%	-1	0.3%	-8%
C=CCN1CCC(=O)C(C(=O)OCC)=C1C(=O)OCC	-1%	x	-3.3%	x
Cc1cc(N/N=C/c2ccco2)c2ccccc2n1	11%	5	2.4%	-16%
Cc1ccc(C(=O)CC(=O)COc2ccc(Cl)cc2C)cc1	8%	-28	-1.5%	-16%

Next part
SMILES	Rango release inh	GLA inh pH 4.5	Rango-impB inh	miR-21 reporter
O=S(=O)(c1cccs1)N1CCN(Cc2ccccc2)CC1	5%	3	-0.4%	-3%
O=C1CCC(c2ccc3c(c2)CCC3)=NN1	20%	x	-4.7%	-46%
Cc1nc2ccccc2n1CC(=O)N/N=C/c1cccs1	17%	1	0.5%	-6%
CSCCC(NS(=O)(=O)c1ccc(Cl)cc1)C(=O)OCC(=O)NC1CC1 (stereo unspecified)	-7%	11	-0.4%	-3%
Cc1ccc(OS(=O)(=O)c2ccccc2)c(/C=N/N=C2\NC(=O)C(C)S2)c1 (stereo unspecified)	-9%	-5	u	-49%
CC(=O)c1cccc(NC(=S)N2CCN(S(=O)(=O)c3ccc(F)cc3)CC2)c1	-13%	x	2.3%	-13%
COc1ccc2nc(-c3ccccc3)nc(SC)c2c1	10%	x	2.2%	x
Cc1ccc(CN2CC(C(=O)N3CCN(S(=O)(=O)c4ccc(C)cc4C)CC3)CC2=O)cc1 (stereo unspecified)	0%	x	-5.6%	x
NC(=O)NCc1cccc(Cl)c1	-4%	5	-2.1%	-1%
C=CCc1cc(/C=C2/NC(=O)NC2=O)cc(OCC)c1O	-15%	-17	1.2%	-22%
NC(=O)/C(=C/c1cccnc1)NC(=O)c1ccccc1	-5%	2	1.6%	3%
CCCC(C(=O)OCCN(CC)CC)(c1ccccc1)c1ccccc1	-22%	-16&-6&-5	-0.4%	x
CCC(CC)N1CCN(CC2CC=CCC2)CC1 (stereo unspecified)	1%	-3	-1.1%	0%
COc1ccc(CCCc2nnc(SCC(=O)Nc3nc(C)cs3)n2C)cc1C	-8%	1	-4.7%	-2%
